Screens from PubChem BioAssay.
VDR inhibitor – vitamin D3 receptor (human) inhibition; P11473; VDR-SRC2-3 peptide fluorescence polarization, 2 h; Potency, µM, for inactives: max response, negative = inhibition, usual class: inhibitors; 400,000 tested, 0.93% active; AID 504847; active means well fitted inhibition curve with a large enough effect; inconclusive means small, poorly fitted or top-dose-only effect, or another doubt; inactive means no such curve, though single readings can be large or run the other way; further: series mostly up to about 120 µM
Target sequence (P11473 whole entry, looked up): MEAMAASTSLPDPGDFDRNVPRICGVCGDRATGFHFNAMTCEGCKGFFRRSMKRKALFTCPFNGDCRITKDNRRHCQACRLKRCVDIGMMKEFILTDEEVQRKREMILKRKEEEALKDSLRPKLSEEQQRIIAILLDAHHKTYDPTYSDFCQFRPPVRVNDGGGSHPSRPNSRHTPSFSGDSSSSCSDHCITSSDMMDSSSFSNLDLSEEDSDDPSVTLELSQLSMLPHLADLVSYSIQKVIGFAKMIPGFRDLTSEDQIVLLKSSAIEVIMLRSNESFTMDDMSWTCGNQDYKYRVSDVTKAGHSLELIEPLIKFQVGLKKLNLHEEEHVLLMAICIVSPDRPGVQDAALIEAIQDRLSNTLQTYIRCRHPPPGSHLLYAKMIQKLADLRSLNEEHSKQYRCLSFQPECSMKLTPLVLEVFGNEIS
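Inhibition of the VDR/SRC2-3 peptide interaction is quantified by fluorescence polarization. Compounds (23 nl, pintool) incubate with the reagents for 2 hours at ambient room temperature.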
* marks the source's active call; other numbers are inactive results; & = joins results of further samples. On the % scale 0 is the no-effect control and ±100 the full control effect; potency means the concentration at half of the fitted maximal effect.

What do the screens show for `COc1ccc2c(C)cc(=O)oc2c1`?
VDR inhibitor: -10%&6%

How did COc1ccc(CNC(=O)COC(=O)/C=C/c2cccc(Cl)c2)cc1 do in these assays?
VDR inhibitor: 5%

How did CCOc1ccc(-c2nc(-c3ccccc3)no2)cc1OCC do in these assays?
VDR inhibitor: -19%

How did COc1ccc(-n2c(SCC(=O)Nc3ccc4c(c3)OCO4)nc3c([nH]c4ccccc43)c2=O)cc1 do in these assays?
VDR inhibitor: 3%

Results for O=S(=O)(/N=C(/Nc1cccnc1)c1ccccc1)c1ccc(F)cc1F ?
VDR inhibitor: -8%

What do the screens show for `NC(=O)Nc1cccc2ccccc12`?
VDR inhibitor: -24%

How did O=[N+]([O-])c1ccc(S(=O)(=O)N2CCN(c3nc(-c4cccs4)nc4ccccc34)CC2)cc1 do in these assays?
VDR inhibitor: -3%

What do the screens show for `Cc1cc(C)n2cc(CSc3nc4cc(Cl)ccc4o3)nc2n1`?
VDR inhibitor: -9%

Results for Cc1ccc(S(=O)(=O)N2CCN(C(=O)CC(C)C)CC2)cc1 ?
VDR inhibitor: inconclusive

How did COc1cc(C(=S)N2CCOCC2)ccc1OS(=O)(=O)c1ccc(C)cc1 do in these assays?
VDR inhibitor: 8%

Results for CCOC(=O)c1cccc(NC(=O)c2c(N)n(C)c(=O)[nH]c2=O)c1 ?
VDR inhibitor: -4%

Results for Cc1ccc(S(=O)(=O)NCC(=O)OC2CCOC2=O)cc1 (centres undefined) ?
VDR inhibitor: 2%

How did CCNC(=O)c1ccc(NC(=O)CC2SC(N3CCCC3)=NC2=O)cc1 (centres undefined) do in these assays?
VDR inhibitor: 7%

Results for Fc1ccc(N/N=C2/CC(c3ccccc3)Oc3ccccc32)c(F)c1 (centres undefined) ?
VDR inhibitor: -22%

Results for CSc1ccc(CNC(=O)c2ccccc2NC(=O)c2nsc3ccccc23)cc1 ?
VDR inhibitor: -5%

How did CCN1C[C@@H]2[C@@H]3C(=O)N(Cc4ccccc4)C(=O)[C@@H]3[C@](Cc3ccccc3)(C1=O)N2C(=O)c1ccc(C)cc1 do in these assays?
VDR inhibitor: 2%

What do the screens show for `O=C(Nc1cc(Cl)ccc1Cl)C1CCCO1` (centres undefined)?
VDR inhibitor: -27%

How did O=C(CN(C(=O)CCC(=O)Nc1nccs1)c1ccccc1F)NCC1CCCO1 (centres undefined) do in these assays?
VDR inhibitor: -5%

Results for CCc1ccc(NC(=O)Cn2c(=O)n(-c3cc(OC)c(OC)c(OC)c3)c(=O)c3ccccc32)cc1 ?
VDR inhibitor: 5%

How did Cc1cccc(NC(=O)NNS(=O)(=O)c2ccc(F)cc2)c1 do in these assays?
VDR inhibitor: -3%

What do the screens show for `Cc1ccc(P(=Nc2ccccc2)(N2CCOCC2)N2CCOCC2)o1`?
VDR inhibitor: 5%

Results for O=C(Nc1ccnn1C1CCN(Cc2ccc(Cl)cc2)CC1)C1CCCC1 ?
VDR inhibitor: 2%

What do the screens show for `CC1CCN(c2ccc(C(=O)NCc3cccs3)cn2)CC1`?
VDR inhibitor: 17%

What do the screens show for `Cc1ccc(OCc2ccc(C(=O)Nc3ccc(S(N)(=O)=O)cc3)o2)cc1`?
VDR inhibitor: 0%

How did COC(=O)c1oc2ccc(Br)cc2c1-n1cccc1 do in these assays?
VDR inhibitor: 11%

How did O=C1c2ccc(-c3nc4ccccc4o3)cc2C(=O)N1Cc1ccccc1 do in these assays?
VDR inhibitor: -14%

What do the screens show for `Cc1ccc(C(=O)CSc2ncnc3sc4c(c23)CCC(C)C4)cc1` (centres undefined)?
VDR inhibitor: 0%

What do the screens show for `COc1cc(-c2nc3ccccc3nc2-c2ccc(O)c(OC)c2)ccc1O`?
VDR inhibitor: -8%

How did Cc1nnc(NCc2ccco2)s1 do in these assays?
VDR inhibitor: 18%

How did O=C(CN1CCN(Cc2ccc(Cl)cc2)C1=O)NCCCN1CCN(c2ccc(F)cc2)CC1 do in these assays?
VDR inhibitor: -7%

How did COCCN(CC(=O)Nc1cccc(S(=O)(=O)N2CCCC2)c1)Cc1nc2ccccc2c(=O)[nH]1 do in these assays?
VDR inhibitor: 0%

How did Nc1ccccc1SCC(=O)Nc1ccc2c(c1)OCO2 do in these assays?
VDR inhibitor: 13%

What do the screens show for `Cc1ccccc1C(=O)NCC(c1cccnc1)N1CCc2ccccc21` (centres undefined)?
VDR inhibitor: 6%

Results for CCOc1cc(CNCCN(C)C)c(Cl)cc1OCC(=O)NCCc1ccccc1 ?
VDR inhibitor: 12%

How did Cc1ccc(-c2onc(C)c2C)cc1S(=O)(=O)NC1CCCCC1 do in these assays?
VDR inhibitor: 6%

Results for Cc1cc2c(cc1NC(=O)c1ccccc1Cl)n(C)c(=O)c(=O)n2C ?
VDR inhibitor: 18%

What do the screens show for `Cc1ccc(-n2c(=O)[nH]cc(C(=O)Nc3ccc4c(c3)OCCO4)c2=O)cc1C`?
VDR inhibitor: -5%

What do the screens show for `O=C(COC(=O)c1ccc(C(F)(F)F)cc1)NC(=O)NC1CCCC1`?
VDR inhibitor: 8%

How did O=C(c1cccnc1)N1CCN(Cc2ccc3ccccc3c2)CC1 do in these assays?
VDR inhibitor: -13%

What do the screens show for `CCOCCc1nnc(NC(=O)C(C)Oc2ccccc2)s1` (centres undefined)?
VDR inhibitor: 0%

What do the screens show for `COc1cc(CNn2cnnc2)ccc1OCC(=O)NC1CCCCC1`?
VDR inhibitor: -11%

Results for CCn1c2c(c(C)cc1=O)C(=O)CC(C)(C)C2 ?
VDR inhibitor: -14%

What do the screens show for `CCc1ccccc1OCC(=O)NCC1COc2ccccc2O1` (centres undefined)?
VDR inhibitor: -2%

Results for Cc1ccc(C(c2c(C)[nH][nH]c2=O)c2c(C)[nH][nH]c2=O)cc1 ?
VDR inhibitor: inconclusive

How did CC1=CC(C)(C)NC(=O)N1c1ccc(C)cc1 do in these assays?
VDR inhibitor: 3%

What do the screens show for `COc1ccc(N2CCN(C(=O)CSc3ccccc3N)CC2)cc1`?
VDR inhibitor: -4%

What do the screens show for `O=C(Nc1ccc(C(=O)O)cc1)/C(=C/c1cccc(Br)c1)NC(=O)c1ccco1`?
VDR inhibitor: -11%

What do the screens show for `COc1ccc(CN(C)C(=O)Cc2ccc(S(=O)(=O)N3CCOCC3)s2)cc1OC`?
VDR inhibitor: inconclusive

How did COC(=O)c1ccccc1NC(=O)CCS(=O)(=O)c1ccc(Br)s1 do in these assays?
VDR inhibitor: -7%

Results for CCOC(=O)c1sc(NC(=O)C2CC(=O)N(c3ccc4c(c3)OCCO4)C2)nc1C (centres undefined) ?
VDR inhibitor: -7%

Results for COc1ccc(C2CC(=O)c3cc(OC)ccc3O2)cc1 (centres undefined) ?
VDR inhibitor: -3%

How did CCCN1Cc2cccc(C(=O)NCCCOC(C)C)c2C1=O do in these assays?
VDR inhibitor: -6%

How did Cc1ccc(N2C(=O)[C@@H]3C(c4ccc(F)cc4)=NO[C@@H]3C2=O)cc1 do in these assays?
VDR inhibitor: 8%

Results for COc1ccc(-c2cc(C(=O)Nc3ccc(O)cc3)c3ccccc3n2)cc1OC ?
VDR inhibitor: -9%

Results for COc1ccc(C(=O)N2CCC3(CCCN(c4ccccc4)C3)CC2)cc1 ?
VDR inhibitor: inconclusive

Results for O=C1NC2(CCCCC2)Cc2ccccc21 ?
VDR inhibitor: 4%

Results for Cc1ccc(C2C=C(c3ccc4c(c3)OCO4)Nc3ncnn32)cc1 (centres undefined) ?
VDR inhibitor: 17%

How did O=C(COc1ccc(Br)cc1F)NC1CCN(Cc2ccccc2)CC1 do in these assays?
VDR inhibitor: 1%

Results for COc1cccc(C(=O)Nc2ccc(NC(=O)c3cc4ccccc4o3)c(OC)c2)c1 ?
VDR inhibitor: 11%

What do the screens show for `COc1ccc(C(=O)NCCC2=CCCCC2)cc1S(=O)(=O)N1CCOCC1`?
VDR inhibitor: -9%

Results for Cc1ccc(S(=O)(=O)NCCC(=O)N2CCN(S(=O)(=O)c3ccccc3)CC2)cc1C ?
VDR inhibitor: -15%

How did C/C(CC(=O)NCc1ccc(Cl)cc1)=N\NC(=O)Cc1ccccc1 do in these assays?
VDR inhibitor: -5%

What do the screens show for `COc1ccccc1C=NNC(=O)c1ccncc1`?
VDR inhibitor: -2%

Results for Cn1nc(C(F)(F)F)c(/C=N/OC(=O)c2ccccc2)c1SCc1ccccc1Cl ?
VDR inhibitor: 1%

Results for COc1cc(/C=N/NC(=O)c2ccc(O)cc2)ccc1OCC(=O)N1CC(C)OC(C)C1 (centres undefined) ?
VDR inhibitor: 0%

Results for CCc1ccc(NC(=O)Cn2cnc3sc(C)c(S(=O)(=O)N4CCOCC4)c3c2=O)cc1 ?
VDR inhibitor: 3%

How did Cc1ccc(S(=O)(=O)N2CCC[C@H]2C(=O)OCc2cc(=O)oc3cc(C)ccc23)cc1 do in these assays?
VDR inhibitor: -11%

What do the screens show for `CC[C@]12C(=O)N(C)C[C@H]([C@@H]3C(=O)N(C)C(=O)[C@@H]31)N2C(=O)c1ccc(C)cc1`?
VDR inhibitor: 3%

How did COC(=O)c1cc(C)sc1NC(=O)CN1CCN(C(=O)C2CCCO2)CC1 (centres undefined) do in these assays?
VDR inhibitor: 5%

Results for COc1cccc(-n2c(SCC(=O)Nc3cccc(C)c3)nc3c([nH]c4ccccc43)c2=O)c1 ?
VDR inhibitor: 17%

Results for c1ccc2sc(SCc3ccc(-c4nnco4)cc3)nc2c1 ?
VDR inhibitor: 0%

What do the screens show for `Cc1ccc2cc(C)c3nnc(SCC(=O)N4CCN(C(=O)c5ccco5)CC4)n3c2c1`?
VDR inhibitor: 12%

Results for CC(=O)Nc1ccc(Nc2nc(-c3c(C)nc4ccccn34)cs2)cc1 ?
VDR inhibitor: -15%

How did CCC(C)NC(=O)c1ccc(COc2ccccc2Cl)cc1 (centres undefined) do in these assays?
VDR inhibitor: 3%

How did CN(c1ccccc1)S(=O)(=O)c1cccc(C(=O)OCC(=O)NCCCN2CCCC2=O)c1 do in these assays?
VDR inhibitor: -6%

Results for COc1ccc(-c2ccc(SCC(=O)N3CCCC3)nn2)cc1OC ?
VDR inhibitor: 8%

Results for COc1ccc(Br)cc1CNC(=O)c1cnc2sc(N3CCCCCC3)nn2c1=O ?
VDR inhibitor: 11%

Results for COc1ccc(Br)cc1S(=O)(=O)Nc1ncn[nH]1 ?
VDR inhibitor: -3%

What do the screens show for `COC(=O)c1ccc2c(=O)n(CCN3CCOCC3)c(=S)[nH]c2c1`?
VDR inhibitor: -9%

Results for Oc1ccc2ccccc2c1C=NNc1ccccn1 ?
VDR inhibitor: -9%

How did COc1ccc(C)cc1NC(=O)/C=C/c1ccc(OC)c(S(=O)(=O)N2CCOCC2)c1 do in these assays?
VDR inhibitor: 1%

Results for COC(=O)/C=C1/S/C(=N/NC(=O)c2ccccc2)NC1=O ?
VDR inhibitor: -1%

What do the screens show for `CC(Oc1ccccc1C(N)=O)C(=O)Nc1ccc(S(=O)(=O)N2CCCC2)cc1` (centres undefined)?
VDR inhibitor: -13%

What do the screens show for `COc1ccccc1OCC(=O)N/N=C/C=C/c1ccc([N+](=O)[O-])o1`?
VDR inhibitor: -11%

As a working copy, part of the list above.
Results for COC(=O)/C=C1/S/C(=N/NC(=O)c2ccccc2)NC1=O ?
VDR inhibitor: -1%

What do the screens show for `CC(Oc1ccccc1C(N)=O)C(=O)Nc1ccc(S(=O)(=O)N2CCCC2)cc1` (centres undefined)?
VDR inhibitor: -13%

Ordered by molar mass (lowest first): some entries from above.
How did Cc1nnc(NCc2ccco2)s1 do in these assays?
VDR inhibitor: 18%

How did CCCN1Cc2cccc(C(=O)NCCCOC(C)C)c2C1=O do in these assays?
VDR inhibitor: -6%

How did O=C(c1cccnc1)N1CCN(Cc2ccc3ccccc3c2)CC1 do in these assays?
VDR inhibitor: -13%

What do the screens show for `Cc1ccccc1C(=O)NCC(c1cccnc1)N1CCc2ccccc21` (centres undefined)?
VDR inhibitor: 6%

Results for O=S(=O)(/N=C(/Nc1cccnc1)c1ccccc1)c1ccc(F)cc1F ?
VDR inhibitor: -8%

What do the screens show for `Cc1ccc(P(=Nc2ccccc2)(N2CCOCC2)N2CCOCC2)o1`?
VDR inhibitor: 5%

How did COC(=O)c1cc(C)sc1NC(=O)CN1CCN(C(=O)C2CCCO2)CC1 (centres undefined) do in these assays?
VDR inhibitor: 5%

Results for COc1ccc(-c2cc(C(=O)Nc3ccc(O)cc3)c3ccccc3n2)cc1OC ?
VDR inhibitor: -9%

What do the screens show for `COc1ccc(C(=O)NCCC2=CCCCC2)cc1S(=O)(=O)N1CCOCC1`?
VDR inhibitor: -9%

Results for COc1cccc(-n2c(SCC(=O)Nc3cccc(C)c3)nc3c([nH]c4ccccc43)c2=O)c1 ?
VDR inhibitor: 17%

How did O=C(CN1CCN(Cc2ccc(Cl)cc2)C1=O)NCCCN1CCN(c2ccc(F)cc2)CC1 do in these assays?
VDR inhibitor: -7%

Carrying on.
What do the screens show for `COc1ccc(CCNc2ncnc3c2cnn3-c2ccc(C)c(Cl)c2)cc1`?
VDR inhibitor: 10%

How did CC(C)(C)OC(=O)NCCCCCc1nnc(SCc2ccccc2F)o1 do in these assays?
VDR inhibitor: -5%

How did CS(=O)(=O)N(Cc1ccccc1)c1ccc(C(=O)Nc2cccc(Cl)c2)cc1 do in these assays?
VDR inhibitor: -2%

What do the screens show for `O=C(COc1ccc2c(c1)OCO2)Nc1ccccc1F`?
VDR inhibitor: 5%

What do the screens show for `CCOC(=O)N1CCN(C(=S)NC(=O)c2ccc(F)c(F)c2)CC1`?
VDR inhibitor: 6%

How did CCc1cccc(N2C(=O)CS(=O)(=O)C23C(=O)N(Cc2ccc(F)cc2)c2ccc(C)cc23)c1 (centres undefined) do in these assays?
VDR inhibitor: 11%

How did Cc1c(C)n(C)c2ccc(C(=O)NCCCN3CCOCC3)cc12 do in these assays?
VDR inhibitor: -18%

Results for CN(C)c1cccc(C(=O)OCCCC(=O)c2ccc(F)cc2)c1 ?
VDR inhibitor: inconclusive

How did C/C(N)=C(/C#N)C(=O)COC(=O)c1ccccc1Cc1ccccc1 do in these assays?
VDR inhibitor: -4%

Not all compounds are listed; count on the stated rates, not on these rows.
